Source: PubChem (ICCB-Longwood Screening Facility, Harvard Medical School)
Polio RdRp inh: inhibitors of poliovirus RNA polymerase binding and polymerization. AID 588519. hit rate 0.66% among 150,000. poliovirus polymerase elongation, fluorescence polarization; active compounds read low. % elongation, % (compound at 16.7 µg/mL); in the data active = % elongation below about 90%; note: some results filed as inactive read as strong as hits
Mtb MenB inh: blocks the Mycobacterium tuberculosis MenB enzyme; P9WNP5; MenB enzyme assay, absorbance read-out; some hits fall short of the stated cut; inhibition, %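 (about 12 µg/mL by stock and volumes)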; hit rate 0.43% among 100,000;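 active = mean of two replicates above 30%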;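 note: 0% = no compound and 100% = wells with inactive enzyme; the first replicate is given; strong numbers were not always called active; inactives centre near -10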
Target sequence (P9WNP5 whole entry, looked up): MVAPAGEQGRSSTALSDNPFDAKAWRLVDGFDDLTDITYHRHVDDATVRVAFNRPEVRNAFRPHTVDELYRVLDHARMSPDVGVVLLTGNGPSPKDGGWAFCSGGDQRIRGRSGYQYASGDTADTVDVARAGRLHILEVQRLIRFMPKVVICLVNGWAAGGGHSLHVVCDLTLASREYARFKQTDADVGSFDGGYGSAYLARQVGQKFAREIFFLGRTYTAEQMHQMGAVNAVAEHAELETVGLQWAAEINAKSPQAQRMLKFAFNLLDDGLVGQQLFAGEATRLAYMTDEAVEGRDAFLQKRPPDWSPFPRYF
MbtI inh: inhibitors of Mycobacterium tuberculosis siderophore enzyme MbtI; inhibition, %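 (about 17 µg/mL by stock and volumes)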; P9WFX0; hit rate 0.89% among 100,000; purified MbtI enzyme, fluorescence intensity read-out;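 active = above 50% in both replicates, above 80% if mildly self-fluorescent; inactive = the rest, strongly fluorescent compounds included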;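 note: 0% = mean of negative and 100% = mean of positive controls; one replicate is shown; some compounds called inactive have numbers as strong as hits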
Target sequence (P9WFX0 whole entry, looked up): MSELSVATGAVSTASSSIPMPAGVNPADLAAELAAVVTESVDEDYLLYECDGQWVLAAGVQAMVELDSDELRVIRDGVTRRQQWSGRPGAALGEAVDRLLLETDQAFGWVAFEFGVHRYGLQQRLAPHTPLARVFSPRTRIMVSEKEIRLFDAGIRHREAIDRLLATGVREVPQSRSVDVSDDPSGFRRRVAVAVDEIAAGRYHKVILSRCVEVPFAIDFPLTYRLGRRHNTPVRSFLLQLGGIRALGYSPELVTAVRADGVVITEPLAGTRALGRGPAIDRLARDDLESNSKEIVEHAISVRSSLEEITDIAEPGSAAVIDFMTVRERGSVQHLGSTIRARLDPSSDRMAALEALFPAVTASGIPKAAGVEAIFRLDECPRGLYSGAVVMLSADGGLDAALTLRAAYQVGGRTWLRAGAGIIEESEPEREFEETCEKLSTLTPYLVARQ
Polio RdRp inh intensity: further read-out of Polio RdRp inh, marked with its call; % elongation; measured here: total intensity read-out; formula for this scale not given here;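 total fluorescence in place of polarization; lower means less elongation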
Starred values were filed as active, the others as inactive; x = no result given; & = joins results of further samples.

#1 CC1=CC(=C(C#N)c2nc3ccccc3s2)C=C(C)N1Cc1ccco1
#2 O=C(NC1CCCCC1)NC(c1ccc(Cl)cc1)c1nnc(-c2ccccc2)o1 (stereo not drawn)
#3 CC(C)[C@H](NS(=O)(=O)c1ccc2c(c1)OCCO2)C(=O)N=c1sc2ccccc2n1C
#4 Nc1ncc(Cc2cccc3ccccc23)s1
#5 NS(=O)(=O)c1ccc(CCn2c(=S)[nH]c3c(sc4ccccc43)c2=O)cc1
#6 CC(C)CSc1nnc(-c2nn(Cc3ccccc3)c(=O)c3ccccc23)o1
#7 OC(CNc1ncnc2sccc12)c1ccccc1 (stereo not drawn)
#8 NNC(=S)c1cc(Cl)cc(Cl)c1

assay / compound | 1 | 2 | 3 | 4 | 5 | 6 | 7 | 8
Polio RdRp inh | 44.0 | 103.0 | 100.0 | 101.0 | 100.0 | 107.0 | 104.0 | 104.0
Mtb MenB inh | -23.1 | 16.6 | -5.3 | x | -39.0 | -1.7 | -20.9 | -30.0
MbtI inh | 5.5 | -9.0 | 16.4 | -2.0 | 17.4 | -7.7 | -2.3 | 18.1
Polio RdRp inh intensity | 190.0 | 103.0 | 103.0 | 94.0 | 105.0 | 108.0 | 105.0 | 105.0

#9 COc1ccccc1Nc1nc(-c2ccccc2)cs1
#10 CCOc1cccc2sc(NC(C)=O)nc12
#11 CC(C)(CN)C12CC3CC(CC(C3)C1)C2
#12 CC(C)(C)NC(=O)c1ccccc1-c1nc(-c2ccccc2)no1
#13 CCOC(=O)CCSc1nc(C)cc(C(F)(F)F)c1C#N
#14 COC(=O)c1n[nH]c2c1CCC2
#15 c1ccc2c(c1)OC1OC2Oc2ccccc21
#16 N=C1N=C2N=CC=CN2Cc2ccccc21

assay / compound | 9 | 10 | 11 | 12 | 13 | 14 | 15 | 16
Polio RdRp inh | 105.0 | 101.0 | 103.0 | 98.0 | 101.0 | 104.0 | 98.0 | 100.0
Mtb MenB inh | x | -6.2 | -1.0 | -5.3 | -16.3 | 1.1 | 4.6 | 22.1
MbtI inh | 12.8 | 17.4 | -15.9 | -5.2 | -6.6 | -5.4 | 9.4 | 5.4
Polio RdRp inh intensity | 106.0 | 97.0 | 107.0 | 100.0 | 107.0 | 104.0 | 102.0 | 105.0

#17 O=S(=O)(NCC(c1ccccc1)n1cc(-c2ccccc2)nn1)c1ccc(Cl)cc1 (stereo not drawn)
#18 CCC(C)n1ncn(-c2ccc(N3CCN(c4ccc(OC)cc4)CC3)cc2)c1=O (stereo not drawn)
#19 c1ccc(CN2CCCC2)nc1
#20 Cc1ccc(-[n+]2cc(NC(=O)/C(C#N)=C/c3ccccc3)on2)cc1
#21 C=C1[C@@H](C)[C@H]2[C@H](Cc3ccccc3)NC(=O)[C@]23[C@H](OC(C)=O)/C=C/[C@](C)(O)C(=O)[C@@H](C)C/C=C/[C@H]3[C@@H]1O
#22 CSc1nnnn1-c1ccc(S(=O)(=O)N(C)C)cc1
#23 O=C1NN(c2ccccc2)C(=O)/C1=C/c1ccc(SC2CCCCC2)o1
#24 Nc1c2c(nc3ccccc13)N(C1CCCCC1)CC2

assay / compound | 17 | 18 | 19 | 20 | 21 | 22 | 23 | 24
Polio RdRp inh | 106.0 | 105.0 | 102.0 | 102.0 | 99.0&99.0 | 104.0 | 102.0 | 100.0
Mtb MenB inh | -33.0 | -3.1 | -86.8 | -136.8 | 9.1 | -37.5 | -11.4 | 11.5
MbtI inh | -4.0 | x | -10.1 | -1.9 | 8.4 | -7.3 | 14.0 | 110.7
Polio RdRp inh intensity | 105.0 | 110.0 | 103.0 | 102.0 | 98.0&98.0 | 102.0 | 103.0 | 92.0

The final two records of the part before are carried over, then new ones follow:
#23 O=C1NN(c2ccccc2)C(=O)/C1=C/c1ccc(SC2CCCCC2)o1
#24 Nc1c2c(nc3ccccc13)N(C1CCCCC1)CC2
#25 CCc1ccc(N=c2oc3c(C)ncc(CO)c3cc2C(N)=O)cc1
#26 COCCn1cc(C(=O)N2CCC(C)CC2)c2c3ccccc3n(C)c2c1=O
#27 CCOC(=O)c1c(C)[nH]c(C)c1C(=O)COC(=O)c1cccc(S(=O)(=O)NC)c1
#28 O=C1/C(=C\O)CCc2occc21
#29 Nc1nccnc1C(=O)OCc1cc(=O)oc2ccc3ccccc3c12
#30 COC(=O)C1=C(C)N=C2SCC(=O)N2C1c1ccccc1 (stereo not drawn)
#31 Cc1cc(C2=NNC(=NC3CC3)SC2)c(C)n1Cc1ccco1
#32 Cc1nccn1CC(O)Cn1c2ccc(Br)cc2c2cc(Br)ccc21 (stereo not drawn)

assay / compound | 23 | 24 | 25 | 26 | 27 | 28 | 29 | 30 | 31 | 32
Polio RdRp inh | 102.0 | 100.0 | 104.0 | 98.0 | 108.0 | 101.0 | 103.0 | 103.0 | 104.0 | 98.0
Mtb MenB inh | -11.4 | 11.5 | -2.7 | -4.3 | -7.5 | -17.2 | -15.1 | -100.6 | -41.4 | -4.9
MbtI inh | 14.0 | 110.7 | -5.9 | 106.9 | -3.7 | 90.2 | 24.8 | -4.3 | -4.6 | -0.9
Polio RdRp inh intensity | 103.0 | 92.0 | 105.0 | 95.0 | 109.0 | 91.0 | 110.0 | 102.0 | 110.0 | 98.0

Entries shown so far with two or more sulfur atoms (three):
#3 CC(C)[C@H](NS(=O)(=O)c1ccc2c(c1)OCCO2)C(=O)N=c1sc2ccccc2n1C
#5 NS(=O)(=O)c1ccc(CCn2c(=S)[nH]c3c(sc4ccccc43)c2=O)cc1
#22 CSc1nnnn1-c1ccc(S(=O)(=O)N(C)C)cc1

assay / compound | 3 | 5 | 22
Polio RdRp inh | 100.0 | 100.0 | 104.0
Mtb MenB inh | -5.3 | -39.0 | -37.5
MbtI inh | 16.4 | 17.4 | -7.3
Polio RdRp inh intensity | 103.0 | 105.0 | 102.0

New compounds follow:
#33 CCS(=O)(=O)N1CCC(c2nc(-c3ccc(C)cc3)no2)CC1
#34 CC(C)(Oc1ccccc1Cl)C(=O)O
#35 CC(=O)OCC(=O)Nc1nc2c(C)cc(C)cc2s1
#36 Cc1ccc2c(c1)NC(CCC(=O)N1CCN(c3cc(Cl)ccc3C)CC1)=NS2(=O)=O
#37 CC(C)(C)C(=O)NC(c1ccc(Cl)cc1)c1nnc(-c2ccccc2)o1 (stereo not drawn)
#38 CCCCCn1c(SC(C)C(N)=O)nc2ccccc21 (stereo not drawn)
#39 O=c1c(=S)[nH]ccn1-c1ccccc1
#40 COC(CN=C1COc2cccnc2N1)OC

assay / compound | 33 | 34 | 35 | 36 | 37 | 38 | 39 | 40
Polio RdRp inh | 104.0 | 102.0 | 105.0 | 101.0 | 100.0 | x | 100.0 | 103.0
Mtb MenB inh | -15.7 | 0.8 | -24.0 | -3.8 | -4.0 | -8.1 | 1.1 | -8.0
MbtI inh | -13.2 | x | 4.8 | -9.8 | -11.9 | 6.3 | 92.6* | 0.7
Polio RdRp inh intensity | 103.0 | 103.0 | 107.0 | 102.0 | 104.0 | x | 101.0 | 108.0

#41 Cc1cccc(N2CCN(C(=O)c3ccc4c(=O)[nH]c5c(C(=O)NC(C)C)sc(=S)n5c4c3)CC2)c1C
#42 O=S(=O)(c1ccc2oc(SCc3ccccc3C(F)(F)F)nc2c1)N1CCCCC1
#43 O=C(c1ccc(=O)n(Cc2ccccc2)n1)N1CCN(c2ccccc2)CC1
#44 CCCc1cc(=O)[nH]c(SCc2cc(=O)oc3cc(C)ccc23)n1
#45 COc1cc(CC(=O)OC2CCOC2=O)cc(OC)c1OC (stereo not drawn)
#46 O=S(=O)(NC1CCCc2ccccc21)c1ccccc1 (stereo not drawn)
#47 CNC(=O)C1CCN(C(=O)N2CCOc3ccccc32)CC1
#48 CC1=CCC(C(=O)O)(C(=O)NCc2ccccc2)C(c2ccc(Br)cc2)C1 (stereo not drawn)

assay / compound | 41 | 42 | 43 | 44 | 45 | 46 | 47 | 48
Polio RdRp inh | 103.0 | 105.0 | 105.0 | 102.0 | 100.0 | 102.0 | 105.0 | 100.0
Mtb MenB inh | -11.8 | 11.9 | -27.1 | -23.7 | 4.2 | 20.3 | -52.2 | -15.8
MbtI inh | 21.9 | 8.1 | -8.4 | -6.8 | -0.9 | -13.3 | -4.2 | x
Polio RdRp inh intensity | 102.0 | 97.0 | 98.0 | 104.0 | 106.0 | 109.0 | 98.0 | 106.0

#49 NS(=O)(=O)c1ccc(NC(=O)CC2(CC(=O)O)CCCC2)cc1
#50 Cc1cc(S(=O)(=O)Nc2ccc3oc4c(c3c2)CC(C(C)(C)C)CC4)ccc1Cl (stereo not drawn)
#51 CN(C)CCCOc1nn(Cc2ccccc2)c2ccccc12
#52 Cc1c(C(=O)OC(C)C#N)oc2c1ccc1ccccc12 (stereo not drawn)
#53 CN(CC(=O)O)C(=O)c1ccco1
#54 Cc1nnc(SCc2cc(Cl)c3c(c2)OCCCO3)n1C1CC1
#55 O=C(OCc1ccccc1)[C@@H]1CCCN1C(=O)c1cccs1
#56 O=c1oc2ccc(Br)cc2cc1-c1csnn1

assay / compound | 49 | 50 | 51 | 52 | 53 | 54 | 55 | 56
Polio RdRp inh | 104.0 | 104.0 | 101.0 | 112.0 | 102.0 | 99.0 | 104.0 | 102.0
Mtb MenB inh | -6.5 | -12.5 | -2.1 | -13.9 | -41.4 | -25.4 | 6.8 | 0.0
MbtI inh | -12.1 | 7.2 | 122.2 | 105.5 | -6.6 | -6.0 | 5.8 | -1.3
Polio RdRp inh intensity | 108.0 | 103.0 | 100.0 | 116.0 | 101.0 | 104.0 | 104.0 | 104.0

#57 C=CCSC1=N/C(=C\c2ccc(-c3ccc(F)cc3)o2)C(=O)S1
#58 C[N+]1(CCOCc2ccccc2)CCOCC1
#59 O=C(OCc1cc(=O)n2c(n1)sc1ccccc12)C1CCN(S(=O)(=O)c2ccccc2)CC1
#60 CCOC(=O)c1cc(C)n(S(=O)(=O)c2ccc(C)cc2)c1C
#61 CC1CCCC(C)N1C(=O)Nc1ccccc1 (stereo not drawn)
#62 O=C(Oc1ccc(/C=N/O)cc1)c1ccccc1
#63 CN(Cn1nc2c(Cl)cc(Cl)cn2c1=S)C1CCCCC1
#64 O=C(Cc1c[nH]c2ccccc12)OCC(=O)c1ccc(F)cc1

assay / compound | 57 | 58 | 59 | 60 | 61 | 62 | 63 | 64
Polio RdRp inh | 110.0 | 102.0 | 96.0 | 103.0 | 101.0 | 98.0 | 104.0 | 109.0
Mtb MenB inh | -46.8 | x | -2.2 | -20.1 | -36.0 | -8.3 | -4.8 | -15.9
MbtI inh | 22.2 | -5.7 | -54.2 | -10.8 | x | 3.9 | 41.2 | x
Polio RdRp inh intensity | 116.0 | 105.0 | 94.0 | 106.0 | 101.0 | 102.0 | 102.0 | 119.0

#65 COc1ccc(Cl)cc1-c1csc(CC#N)n1
#66 Cc1ccc2c(c1)c1c(n2C)C(=O)CCC1
#67 O=C(NCc1noc2ccccc12)N1CCCCC1
#68 CCn1cc(C(=O)O)c(=O)c2cnc(N3CCN(C(=S)NC)CC3)nc21
#69 O=C(O)CC12CC3CC(CC(Cl)(C3)C1)C2
#70 CCn1c(=O)c2cc(C(=O)N(C)CCC#N)sc2c2ccccc21
#71 CCN1CCC(N(Cc2cccc(OC)c2)C(=O)Nc2cc(C)cc(C)c2)CC1
#72 Cn1c(SCc2ccccc2)nnc1C1CCCN1CC(=O)N1CCN(c2ccc(F)cc2)CC1 (stereo not drawn)

assay / compound | 65 | 66 | 67 | 68 | 69 | 70 | 71 | 72
Polio RdRp inh | 112.0 | 100.0 | 104.0 | 106.0 | 99.0 | 101.0 | 101.0 | 101.0
Mtb MenB inh | -23.0 | -59.6 | 11.6 | 3.8 | x | -5.3 | -8.4 | -49.6
MbtI inh | 2.9 | 19.1 | -1.8 | x | -3.6 | 13.3 | -21.4 | -7.0
Polio RdRp inh intensity | 104.0 | 100.0 | 97.0 | 104.0 | 103.0 | 105.0 | 104.0 | 103.0

#73 C=CCNc1nc(Nc2ccc(Cl)cc2)nc(OC)n1
#74 Cc1ccc(S(=O)(=O)NC(=O)N2CC3(C)CC2CC(C)(C)C3)cc1 (stereo not drawn)
#75 CCCc1noc2c1C(=O)CC(C)(C)C2
#76 Cc1nc2ccccc2n1C(F)(F)C(F)F
#77 CN(CCC#N)C(=O)C1CCN(S(=O)(=O)c2cccs2)CC1
#78 Cc1c(C(=O)CSc2nnc(CN3CCOCC3)n2C)c2ccccc2n1C
#79 COc1cc(Br)cc2cc3c(=O)n(-c4ccccc4)nc-3oc12
#80 Nc1nc(N)nc(CSc2nncs2)n1

assay / compound | 73 | 74 | 75 | 76 | 77 | 78 | 79 | 80
Polio RdRp inh | 100.0 | 100.0 | 101.0 | 101.0 | 106.0 | 104.0 | 101.0 | 98.0
Mtb MenB inh | 1.3 | 5.7 | 10.0 | 9.7 | -21.0 | -44.1 | 5.3 | -21.0
MbtI inh | -3.1 | -4.0 | -4.2 | -3.1 | -11.1 | -10.6 | 21.0 | 17.2
Polio RdRp inh intensity | 102.0 | 103.0 | 103.0 | 101.0 | 111.0 | 103.0 | 99.0 | 92.0

#81 C#CCn1c(CSc2ccccc2)nc2ccccc21
#82 O=C(c1ccccc1)N1CN(C2CCCCC2)Cc2c1sc1c2CCCC1
#83 COC(=O)c1ccc(N2CCOCC2)c(NC(C)=O)c1
#84 Cc1cc(C)c2c(CC(=O)NC(C)C)coc2c1
#85 CCOC1(c2cccs2)OC(c2cccs2)=C(c2cccs2)OC1c1cccs1 (stereo not drawn)

assay / compound | 81 | 82 | 83 | 84 | 85
Polio RdRp inh | 101.0 | 106.0 | 101.0 | 100.0 | 102.0
Mtb MenB inh | -85.3 | 2.3 | 8.5 | 6.3 | -23.7
MbtI inh | 7.5 | x | 5.8 | -2.9 | 18.7
Polio RdRp inh intensity | 103.0 | 111.0 | 101.0 | 103.0 | 93.0
